HIV Env fusion: inhibitors of HIV Env-mediated cell fusion. 360,000 compounds, 1.1% hits. HeLa-JRFL Env/CEM21 cell fusion, luciferase. AID 651610. inhibition, % at 12.3 µM;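 active means mean replicate inhibition score of at least 50 and every replicate individually at or above 50; inconclusive means only one of the two criteria met; inactive means mean below 50 and not all replicates reaching 50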;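 further: 0% = plate neutral controls and 100% = maraviroc near 300 nM; one replicate is shown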
CSC inhib: cancer stem cell inhibition; cancer stem cell-like cells viability, luminescence; inhibition, % at 7.5 µM; 300,000 compounds, 1.1% hits;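 active means mean at 75% or more and at least half the replicates too; inconclusive means mean and replicates disagree; tested in HMLE shEcad cells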;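 further: 0% = median of negative and 100% = median of positive control wells; the first replicate is given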
eIF4H FP inh: inhibitors of RNA binding by human eIF4H | eIF4H fluorescence polarization binding assay | inhibition, % at 35 µM | 290,000 compounds, 0.94% hits | AID 2012;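 active means 50% or more with normal probe brightness, or confirmed in later tests; inconclusive means above 50% with abnormal brightness, or retests that disagree; inactive means below 50% or failed in later tests; about a fifth of its hits are not listed in these tables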;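 further: calls also rest on retests at 20 µM and on dose response follow-up; 0% = protein and probe with vehicle and 100% = probe without protein; strong numbers were not always called active; many hits fall short of the cut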
MT1-MMP act inh: MT1-MMP (human) activation inhibition; P50281; HT1080 RFP-PRO-GFP cells, GFP/RFP ratio fluorescence, overnight; percent of plate control window, DMSO zero; GFP/RFP ratio change, % at 20 µM; 360,000 compounds, 0.061% hits; AID 651647;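 active means GFP/RFP ratio change of at least 30% with cell ATP level not reduced by more than half and red fluorescence within 50% of control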; further: strong numbers were not always called active
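Read-out: GFP/RFP fluorescence ratio; Test system: RFP-PRO-GFP reporter HT1080 cells; Compound dosing: single-point 20 µM compound, 1% DMSO; Times: overnight compound exposure at 37 °C.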
Rce1 inhib: inhibitors of yeast Ras-converting enzyme | calls only | 290,000 compounds, 0.27% hits | yeast membranes, quenched prenylated peptide cleavage fluorescence | Q03530;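 active means fall in fluorescence gain of 50% or more versus controls, with final raw signal at or below 3038400; inconclusive means same 50% fall but final raw signal above 3038400; inactive means fall in fluorescence gain under 50%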;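 further: plate controls were neutral control wells for no effect and wells lacking membranes for full effect; tested at 10 µM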
Target sequence (Q03530 whole entry, looked up): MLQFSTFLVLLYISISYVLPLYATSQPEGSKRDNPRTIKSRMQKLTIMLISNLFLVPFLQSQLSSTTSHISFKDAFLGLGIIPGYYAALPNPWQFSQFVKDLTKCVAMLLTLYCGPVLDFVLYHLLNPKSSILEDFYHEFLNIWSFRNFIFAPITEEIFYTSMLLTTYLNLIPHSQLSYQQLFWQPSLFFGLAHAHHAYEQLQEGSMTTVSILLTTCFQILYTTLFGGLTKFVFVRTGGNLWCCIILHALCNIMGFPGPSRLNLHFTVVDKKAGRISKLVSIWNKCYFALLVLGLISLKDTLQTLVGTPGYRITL
PABP polyA inh: PABP-poly(A) binding inhibition. inhibition, % at 35 µM. AID 2014. 290,000 compounds, 1% hits. PABP-poly(A) RNA binding, fluorescence polarization;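 active means 50% or more with normal probe brightness, or confirmed in later tests; inconclusive means above 50% with abnormal brightness, or retests that disagree; inactive means below 50% or failed in later tests; about a fifth of its hits are not listed in these tables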;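 further: calls also rest on retests at 20 µM and on dose response follow-up; controls were probe without protein and protein plus probe with vehicle; some compounds called inactive have numbers as strong as hits; many hits fall short of the cut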
Target sequence (P11940 whole entry, looked up): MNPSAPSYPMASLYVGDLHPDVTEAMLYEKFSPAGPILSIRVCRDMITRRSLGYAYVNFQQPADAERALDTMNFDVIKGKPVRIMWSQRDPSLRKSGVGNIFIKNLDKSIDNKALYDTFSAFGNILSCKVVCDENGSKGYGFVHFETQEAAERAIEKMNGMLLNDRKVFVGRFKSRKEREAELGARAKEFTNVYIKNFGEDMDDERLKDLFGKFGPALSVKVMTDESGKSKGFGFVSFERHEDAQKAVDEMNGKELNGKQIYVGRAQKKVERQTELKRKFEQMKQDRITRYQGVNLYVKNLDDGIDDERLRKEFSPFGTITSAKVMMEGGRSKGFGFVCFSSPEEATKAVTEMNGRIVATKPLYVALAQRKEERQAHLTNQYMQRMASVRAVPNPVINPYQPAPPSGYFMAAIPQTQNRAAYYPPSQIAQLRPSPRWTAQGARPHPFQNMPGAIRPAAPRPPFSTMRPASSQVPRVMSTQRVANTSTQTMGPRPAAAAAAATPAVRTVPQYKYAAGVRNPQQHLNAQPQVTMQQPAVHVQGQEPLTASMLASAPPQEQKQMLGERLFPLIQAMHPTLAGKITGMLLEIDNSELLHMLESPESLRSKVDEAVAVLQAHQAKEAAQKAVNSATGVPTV
Yeast UUG start: modulators of start codon recognition fidelity in yeast; activity score, % at 18.7 µM; S. cerevisiae UUG-firefly luciferase reporter, luminescence/redox ratio; 350,000 compounds, 0.13% hits;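 active means replicate mean at a twofold rise or more, about +100% in these data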;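 further: firefly luciferase made from a UUG start codon reports start codon fidelity; reporter light over untreated wells divided by growth signal over untreated wells; some hits fall short of that in this replicate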
eIF4H FP inh retest: recorded beside eIF4H FP inh, whose call it bears; inhibition, %; compound at 20 µM; confirmation average;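 mean of two retest wells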
PABP polyA inh retest: further read-out of PABP polyA inh, marked with its call; inhibition, %; compound at 20 µM; confirmation repeats;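 mean of two retest wells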
MT1-MMP act inh RFP: further read-out of MT1-MMP act inh, marked with its call; RFP signal change, %; measured here: RFP expression control read;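 0 = vehicle wells; hits needed this value within 50% of zero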
* hit, by the source's call; i = inactive; ? = inconclusive; · = no result given; + = active, no number; & = joins results of further samples. Some of the compounds tested; count on the stated rates, not on these rows.

SMILES	HIV Env fusion	CSC inhib	eIF4H FP inh	MT1-MMP act inh	MT1-MMP act inh RFP	Rce1 inhib	PABP polyA inh	Yeast UUG start	others
CC1CCCC(C)N1/N=C/c1ccc([N+](=O)[O-])cc1 (stereo not drawn)	12	6	-6	2	-1	i	0	-11
O=C(Nc1ccccc1Cl)c1cc(C2CCCN(C(=O)c3ccccc3)C2)on1 (stereo not drawn)	0	·	·	0	3	·	·	0
O=C(CN1C(=O)S/C(=C\C=C\c2ccccc2)C1=O)Nc1ccc(O)cc1	·	79*	6	2	-3	i	7	-16
Cn1ncc(-c2ccno2)c1C(=O)O	6	-13	-2	-2	-1	i	-7	·
CS(=O)(=O)N(CC(=O)N1CCN(C(c2ccccc2)c2ccccc2)CC1)C1CCCCC1	-134	2	-10	-7	-9	i	1	1
COC(=O)c1c(-c2cccc(C)c2)csc1NC(=O)C1CCCO1 (stereo not drawn)	-5	·	0	1	-2	i	-1	-10
Cc1ccc2nc(Cl)c(/C=N/NC(=O)c3ccccc3O)cc2c1	11	6	-12	2	1	i	-10	-3
CC1CN(S(=O)(=O)c2cccc(-c3csc(-c4ccccc4)n3)c2)CC(C)O1 (stereo not drawn)	·	-2	-5	-13	-21	i	-8	-1
Cc1cccc(NC(=S)N2CCN(Cc3ccc4c(c3)OCO4)CC2)c1C	·	9	-10	0	-2	i	4	-10
CCOC(=O)N1CCN(CC(O)c2ccc3c(c2)CCN3)CC1 (stereo not drawn)	·	-4	-4	-2	-1	i	1	-1
CC(C)(C)c1ccc(C(=O)N/C(=C\c2cccc([N+](=O)[O-])c2)C(=O)Nc2cccc(C(=O)O)c2)cc1	3	-3	2	-2	3	i	-2	-11
COc1ccc(/C=C/c2ccncc2)c2ccccc12	·	66	4	·	·	i	11	-21
Cc1ccc(OCCCC(=O)Nc2ccc3c(c2)OCO3)cc1	·	6	2	6	3	i	1	·
CCC(C)(C)NC(=O)CN(C(=O)c1csnn1)c1ccccc1-c1ccccc1	-11	18	2	2	2	i	-2	·
CC(=O)Nc1nc(-c2ccc([N+](=O)[O-])cc2)cs1	-15	-9	1	3	-1	i	8	·
CN(C(=O)COC(=O)c1cc2ccccc2cc1O)C1CCCCC1	-7	-19	·	5	-2	·	·	-23
Cc1cc(C)cc(NC(=O)CSCc2cc(=O)n3ccsc3n2)c1	14	-8	-2	1	1	i	-2	-19
O=C(C1=C[C@@H](c2ccccc2)C[C@@H](OCCCCO)O1)N1CCN(Cc2ccc3c(c2)OCO3)CC1	-3	-2	2	-10	-1	i	1	-7
O=C1NC(c2ccc(Br)cc2)Nc2ccccc21 (stereo not drawn)	-103	-12	-9	-6	-13	+	-1	-11
COC(c1ccccc1)c1nc2ccccc2[nH]c1=O (stereo not drawn)	-8	4	1	-1	4	i	1	-4
CCOC(=O)N1CCN(C(=O)C(=O)Nc2sc3c(c2C#N)CC(C)(C)OC3)CC1	-4	6	-3	4	5	i	6	-12
CCOC(=O)c1ccccc1Nc1cn(C(C)=O)c2ccccc12	·	55	-4	-9	-16	i	9	·
COc1cc(/C=C/C(=O)NC(C)C2CC3CCC2C3)cc(OC)c1OC (stereo not drawn)	-31	-9	-6	10	-1	i	20	-3
C=CCN1N=C(c2ccc(NC(=O)c3ccccc3)cc2)CSC1=O	0	-3	-9	-11	-12	i	-9	·
COc1c(C)cc(S(=O)(=O)NCc2ccco2)c(C)c1C	13	-8	-4	-2	-2	i	9	1
More results.
SMILES	HIV Env fusion	CSC inhib	eIF4H FP inh	MT1-MMP act inh	MT1-MMP act inh RFP	Rce1 inhib	PABP polyA inh	Yeast UUG start	others
CS(=O)(=O)N(CC(=O)Nc1c(F)cccc1F)c1ccc(C23CC4CC(CC(C4)C2)C3)cc1	·	28	1	-5	-18	i	2	-21
O=C(CCl)NC(Cc1c[nH]c2ccc(OCc3ccccc3)cc12)C(=O)O (stereo not drawn)	19	2	71	1	0	i	-4	-15	eIF4H FP inh retest=-15;PABP polyA inh retest=7
CN(C)/C=N/c1nc2ccc3c(c2s1)CCCC3	·	9	-2	2	2	i	6	-15
O=C(Nc1ccccc1F)C(c1ccccc1)c1ccccc1	13	-7	·	4	4	i	·	·
COc1ccc(C(=O)N/N=C/c2ccc(OC)c(COc3c(F)c(F)cc(F)c3F)c2)cc1	-14	25	8	-1	0	i	-5	-11
COC(=O)c1sccc1NC(=O)COc1ccc(Cl)cc1	·	9	-2.0*	5	10	i	81*	·	eIF4H FP inh retest=90*;PABP polyA inh retest=58*
COc1cc(C(N)=O)cc(Cl)c1OC	26	-9	-7	-6	0	i	-1	·
O=c1onc(-c2cccnc2)n1-c1ccccc1F	0	-13	-2	-4	-6	i	3	-13
O=C(NCCN1CCN(C(=O)c2ccc(F)cc2)CC1)c1ccc(F)cc1	3	-6	-2	4	2	i	-3	-9
CN(C)S(=O)(=O)N1CCC(Cc2ccccc2)CC1	-65	-10	0	6	-2	·	1	1
Cc1c(C(=O)NCc2ccc3c(c2)OCO3)oc2ccc(S(=O)(=O)N3CCCCC3)cc12	·	·	-11	-8	-14	i	-6	-13
C/C(=N\NC(=S)Nc1cc(S(=O)(=O)N2CCOCC2)ccc1Cl)c1ccccc1F	-16	14	-7	3	5	i	0	-1
COc1cccc(N2C(=O)CC(N3CCN(c4ccc([N+](=O)[O-])cc4)CC3)C2=O)c1 (stereo not drawn)	0	-13	-10	6	-2	i	0	-5
COc1ccc(/C=N/Nc2ccc(C(=O)O)cc2)cc1Br	44	2	1	5	3	i	25	-62
O=[N+]([O-])c1ccc(N2CCCCC2)c(-c2nn[nH]n2)c1	10	0	7	2	4	i	5	·
CCOc1ccc(NC(=O)CCc2nnc3ccc(N4CCC(C)CC4)nn23)cc1	10	2	1	-2	-3	i	8	-18
CCC(=O)OCCn1c(=O)c2ccccc2c2ccccc2c1=O	-8	0	-7	-1	5	i	-7	·
N#CCCN1CCN(S(=O)(=O)c2ccc(S(=O)(=O)NCC3CCCO3)cc2)CC1 (stereo not drawn)	-4	-2	6	1	-1	i	-16	-11
Cc1ccc(NC(=O)C(NC2CCCc3ccccc32)c2ccccc2)cc1Cl (stereo not drawn)	-9	40	-6	-7	-5	i	8	4
Cc1ccc(C(=O)Nc2nnc(C)s2)cc1	-43	-1	-1	1	0	i	-8	-23
CC1CCCC(NC(=O)c2cccc(N3CCCC3=O)c2)C1C (stereo not drawn)	-11	-10	1	-1	0	·	?	·
CCOP(=O)(OCC)C(NC(=O)Nc1ccc(Cl)cc1)c1ccccc1 (stereo not drawn)	-93	5	-8	-2	-1	i	19	-3
COc1ccc(NS(=O)(=O)c2cc3c4c(c2)CCN4C(=O)CC3)cc1OC	·	-4	·	10	-9	i	·	·
Cc1ccc(S(=O)(=O)Nc2cccc(N(C)S(C)(=O)=O)c2)cc1[N+](=O)[O-]	9	7	-1	-5	-5	i	10	·
S=c1nc(-c2ccccc2)[nH]c2ccccc12	5	-8	?	2	2	i	?	21
(list continues)
SMILES	HIV Env fusion	CSC inhib	eIF4H FP inh	MT1-MMP act inh	MT1-MMP act inh RFP	Rce1 inhib	PABP polyA inh	Yeast UUG start	others
CN(Cc1ccon1)C(=O)CCc1nnc(Cc2ccc(-c3ccccc3)cc2)o1	-49	-3	-10	2	-4	i	10	-4
COc1ccc(CC(=O)N/N=C/c2ccc(Cl)s2)cc1OC	9	-4	0	-3	-5	i	-1	-18
COc1ccc(OC)c(NC(=O)C2(C)CCN2C(=O)C(C)(C)c2ccccc2)c1 (stereo not drawn)	4	·	·	-4	-4	·	·	1
C=C1C[C@H](O[C@@H]2O[C@H](CO)[C@@H](O)[C@H](O)[C@H]2O)[C@@H]2[C@H](OC(=O)[C@H]2C)[C@H]2[C@H](C)[C@@H](O)C[C@@H]12	14	-7	·	1	2	·	·	-9
O=C(CSc1nnc2nnc3ccccc3n12)N1CCOCC1	-18	-11	?	-4	0	i	?	-13
COc1cccc(OC)c1OCCCOc1cccc2cccnc12	13	-9	3	1	1	i	8	-1
CCOC(=O)C1(NC(=O)C2(N3C(=O)c4ccccc4C3=O)CCCC2)CCCC1	-24	·	·	-4	1	·	·	-8
Cn1c(=O)c2[nH]c(N3CCN(c4ccccn4)CC3)nc2n(C)c1=O	·	-4	-3	·	·	·	-5	·
Cc1ccc(S(=O)(=O)N2C[C@H]3C(=O)C[C@@H](c4ccc(Cl)cc4)N(S(=O)(=O)c4ccccc4C)[C@H]3C[C@H]2c2cccc(Cl)c2)cc1	-1	·	·	-4	-4	·	·	-17
CCCn1c(=O)c(C(=O)Nc2cc(C)ccn2)c(O)c2ccccc21	-25	19	-6	5	0	i	4	-28
CCc1cc(C(=O)Nc2ccc(C)cc2Br)cs1	-136	-8	-1	1	6	i	-10	·
Cc1[nH]c2ccccc2c1C(=O)CSc1ncn[nH]1	-60	-9	0	0	3	i	-6	-18
CCc1nc2ccccc2n1Cc1ccccc1OC	·	-1	8	1	-1	i	-2	-19
CN(C)CCCN1c2ccccc2Sc2ccc(Cl)cc21	-33&3	18&7	12&1	-11&-9	-9&-8	i	0&-10	-5&5
COc1ccc(O)c(CNn2c(-c3ccc(Br)cc3)nc3ccccc3c2=O)c1	4	5	3	-5	-7	i	10	·
CCOc1ccc(NC(c2ccccc2)P(=O)(OC)OC)cc1 (stereo not drawn)	3	12	5	-3	-1	i	5	-5
CCn1nnnc1SCC(=O)N1CCc2ccccc21	·	1	·	4	-1	i	·	-7
O=C(Nc1ccccc1N1CCCCC1)c1cnccn1	5	0	-11	-8	-8	i	9	-11
CC(=O)Nc1cccc(-c2cc(C)c3cc4c(cc3n2)OCO4)c1	-50	·	?	2	6	i	?	18
COc1cccc(N(CC(=O)NC2CC3CCC2C3)S(=O)(=O)c2ccccc2)c1 (stereo not drawn)	-2	-8	6	0	1	i	4	-4
COc1ccc(Br)cc1/C=C/C(=O)Nc1ccc(C)cc1	18	69	-2	-3	-8	i	-2	-6
CC(=O)Oc1ccc2c(=O)c(N3C(=O)c4ccccc4C3=O)c(C)oc2c1	-2	-6	-7	-2	6	i	-10	5
Cc1[nH]nc2c1C(c1cccs1)C1=C(CCCC1=O)N2 (stereo not drawn)	-10	-15	-6	3	7	i	-1	·
CCc1ncc(CN2CCCCC2C(=O)Nc2ccc(Oc3ccccc3)nc2)cn1 (stereo not drawn)	-19	0	7	2	-2	i	-4	-9
Cc1sc(NC(=O)Cn2cnnn2)nc1-c1ccc(Cl)cc1	-10	-1	-12	2	-9	i	0	·
Cc1onc(-c2ccccc2)c1NC(=O)N(CCC#N)Cc1cccs1	-82	-12	-11	-3	-2	i	16	-11
O=C(Nc1ccc2c3c(cccc13)CC2)c1ccco1	·	-8	36	-10	-2	i	26	0
COc1ccc(/C=C/c2ccc3cccc(O)c3n2)c(OC)c1OC	-356	73	7	2	-7	i	6	-13
CC(=O)c1c(C)[nH]c(C(=O)N2CCN(c3ccc(F)cc3)CC2)c1C	·	·	-10	0	-8	·	-1	-14

Entries shown so far with a furan ring, fused or not:
SMILES	HIV Env fusion	CSC inhib	eIF4H FP inh	MT1-MMP act inh	MT1-MMP act inh RFP	Rce1 inhib	PABP polyA inh	Yeast UUG start	others
COc1c(C)cc(S(=O)(=O)NCc2ccco2)c(C)c1C	13	-8	-4	-2	-2	i	9	1
Cc1c(C(=O)NCc2ccc3c(c2)OCO3)oc2ccc(S(=O)(=O)N3CCCCC3)cc12	·	·	-11	-8	-14	i	-6	-13
O=C(Nc1ccc2c3c(cccc13)CC2)c1ccco1	·	-8	36	-10	-2	i	26	0
